A488 fluor: qHTS Assay for Spectroscopic Profiling in A488 Spectral Region. compound autofluorescence, A488 spectral region, dye equivalency; stronger effect = higher value. max dye equivalency, M. 59,000 tested, 0.1% active. AID 591, 2007; active = above 10 nM dye equivalent; inconclusive = 1 to 10 nM; inactive = 1 nM or less; about half of its hits are not listed in these tables;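 note: highest value over a series up to 38 µM; compound alone in buffer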
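Autofluorescence read at ex 480/em 540 nm after 15 min RT in 100 mM Tris pH 8.0; compound signal normalized to A488 standard series on each plate, reported as dye-equivalent concentration at each test concentration.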
AID923: qHTS Assay for Allosteric/Competitive Inhibitors of Caspase-1: Spectroscopic Profiling in AFC Spectral Region. Potency, µM (top dose mostly 57.5 µM), for the others: at the top dose fluorescence increase, actives largely listed as activators. AID 923, 2007. 75,000 tested, 1.1% active. compound fluorescence, AFC spectral region (405/520 nm); almost no hit is shown here; active = well fitted activation curve with a large enough effect; inconclusive = small, poorly fitted or top-dose-only effect;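 note: potency is the fitted concentration of half-maximal effect; 0% is about no effect; scaled to a free AFC standard on each plate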
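Baseline compound fluorescence (AFC region, 405 nm ex/520 nm em) taken from the intercept of kinetic reads with 50 nM caspase-1 and 5 uM Ac-WEHD-AFC; normalized to an on-plate AFC standard curve; compounds titrated up to 57 uM.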
A647 fluor: qHTS Assay for Spectroscopic Profiling in A647 Spectral Region | Compound fluorescence, A647 channel (570/671 nm), Tris buffer | max dye-equivalent concentration, M | 59,000 tested, under 10 active; active means above 1 µM dye equivalent; inconclusive means 0.1 to 1 µM; inactive means 0.1 µM or less;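 note: values scaled relative to a standard on each plate; highest value over a series up to 38 µM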
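Tris 100 mM pH 8.0; cpd + A647 stds pin-transferred; 15 min RT; CCD imager, ex 570/em 671. Output = A647-equivalent conc. per cpd conc.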
Resorufin autofl: qHTS Assay for Spectroscopic Profiling in Resorufin Spectral Region. Compound fluorescence, resorufin region 547/598 nm, buffer; stronger effect = higher value. 59,000 tested, 0.04% active. max dye-equivalent concentration, M; active = above 10 nM dye equivalent; inconclusive = 1 to 10 nM; inactive = 1 nM or less; a few of its hits are not listed in these tables; note: highest value over a series up to 38 µM
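Tris 100 mM pH 8.0; compound added, 15 min RT; CCD imager read, ex 547 nm/em 598 nm; signal normalized to resorufin standard curve (six concentrations per plate) as dye-equivalent concentration.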
TSHR agonist: qHTS Assay for Agonists of the Thyroid Stimulating Hormone Receptor; Potency, µM (doses to about 57.1 µM), for the others: at the top dose activation, actives largely listed as activators; Thyrotropin receptor (Homo sapiens), P16473; 73,000 tested, 0.48% active; AID 926, 2007; HEK293-CNG-TSHR cells (CNG channel as cAMP sensor), membrane potential dye, cAMP; active = well fitted activation curve of enough size with the parental cells flat; inconclusive = any curve in the parental cells; inactive = parental cells flat and receptor cells flat or falling; note: potency is the fitted concentration of half-maximal effect; % of control where 0% means no effect; weak receptor curves with flat parental cells got no call and are not listed
Target sequence (P16473 whole entry, looked up): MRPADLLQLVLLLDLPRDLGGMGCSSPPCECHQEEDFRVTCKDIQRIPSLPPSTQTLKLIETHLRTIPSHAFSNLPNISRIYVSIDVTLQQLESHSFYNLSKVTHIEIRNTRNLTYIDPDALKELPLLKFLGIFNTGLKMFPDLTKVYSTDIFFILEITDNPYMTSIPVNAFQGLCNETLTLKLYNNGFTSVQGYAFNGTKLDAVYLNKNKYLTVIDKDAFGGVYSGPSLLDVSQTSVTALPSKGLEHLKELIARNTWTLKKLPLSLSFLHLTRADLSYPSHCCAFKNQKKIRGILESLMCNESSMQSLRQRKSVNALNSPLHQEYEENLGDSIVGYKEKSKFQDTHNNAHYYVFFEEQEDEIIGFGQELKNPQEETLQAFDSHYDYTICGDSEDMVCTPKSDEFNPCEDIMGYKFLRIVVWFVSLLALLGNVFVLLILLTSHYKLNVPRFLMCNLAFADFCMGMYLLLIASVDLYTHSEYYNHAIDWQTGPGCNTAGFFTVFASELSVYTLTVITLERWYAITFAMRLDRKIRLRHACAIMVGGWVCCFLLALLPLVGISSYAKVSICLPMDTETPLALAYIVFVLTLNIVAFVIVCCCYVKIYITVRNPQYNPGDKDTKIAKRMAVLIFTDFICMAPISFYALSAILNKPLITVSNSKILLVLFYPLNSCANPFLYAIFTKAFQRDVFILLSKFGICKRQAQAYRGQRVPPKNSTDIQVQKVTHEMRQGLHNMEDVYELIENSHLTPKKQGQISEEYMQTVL
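HEK 293 cells stably expressing TSHR and a cAMP-gated CNG channel; parental CNG-only cells as counterscreen. Cells preloaded 60 min with membrane potential dye plus 100 uM RO 20-1724, then compound 30 min; fluorescence read at 590 nm.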
Active calls of the source: *; i = inactive; u = inconclusive; x = no result given; & = joins results of further samples; [ ] = another dose, or the depositor's remark. The list is partial; the hit share may differ from the screen's.

Screens in order – A488 fluor, AID923, A647 fluor, Resorufin autofl, TSHR agonist
> Nc1nc(-c2ccco2)cs1
 : i, 3.4%, 4.4e-09, i, 0%
> COC(=O)NC1(C(F)(F)F)C(=O)NC(C)=C1C(=O)OC (stereo not drawn)
 : i, 1.2%, 2.4e-09, i, -18%
> COc1ccc(-c2nn(C)c(=O)c3ccccc23)cc1CNC(=O)c1ccco1
 : i, -0.3%, 7.4e-09, i, 14%
> CC1CC(NC(=O)CCn2c(=O)oc3ccccc32)CC(C)(C)C1 (stereo not drawn)
 : x, -3.3%, x, x, 21%
> NC(=O)c1ccc(-c2ncc(-c3ccccc3)o2)cc1
 : i, -0.9%, 2.5e-08, i, 6%[11.4 µM]
> O=C(NCC1CCCO1)c1ccc(NC(=O)C2CC=CCC2C(=O)O)cc1 (stereo not drawn)
 : i, -1.3%, 3.3e-08, i, -3%
> Cc1cnc(C(=O)Nc2ccccc2C(=O)N2CCOCC2)cn1
 : i, -1.8%, 3.4e-08, i, 2%
> COCCCNC(=O)c1ccc(NS(C)(=O)=O)cc1
 : i, 0.1%, 1e-09, i, -14%
> CCOC(=O)[C@@]12C[C@@H]1/C(=N/O)c1ccccc1O2
 : i, -3.1%&-2.3%, 6.5e-08, i, u
> O=C(NCc1ccccc1)c1ccc2c(c1)OCCO2
 : x, 0.7%, x, x, 11%
> O=S(=O)(c1ccccc1)N1CCC2(CC1)CN(Cc1nccs1)C2
 : i, 0.2%, 2.6e-09, i, 5%
> COc1ccc(OC)c(N2Cc3cc(C)c(C)cc3C2)c1
 : i, 2.2%, 3.1e-08, i, 5%
> Cc1c(C(=O)N2CCN(c3ccc(C(F)(F)F)cn3)CC2)oc2ccccc12
 : i, 0.4%, 9.6e-09, i, u
> Cc1occc1C(=O)N1CCN(C(c2ccccc2)c2ccccc2)CC1
 : i, -1.7%, 2.4e-09, i, 32µM*
> O=C(CCS(=O)(=O)c1cccc2nonc12)N1CCCc2ccccc21
 : i, 0.8%, 2.5e-08, i, 1%
> CCn1cc(C(=O)NCc2cccnc2)c2cc(OC)c(OC)cc2c1=O
 : i, -0.3%, 2.1e-08, i, 12%
> O=C(NCCCCNC(=O)c1ccco1)c1ccco1
 : i, 1.6%, 6e-09, i, -1%
> CN(Cc1ccccc1)C(=O)CCNS(=O)(=O)c1ccc2c(c1)oc(=O)n2C
 : i, 3.9%, 1.7e-08, i, 3%
> CCN(CC)CCNC(=O)Cn1nc(Cc2ccccc2)c2ccccc2c1=O
 : x, 1.3%, x, x, 17%
> Cc1csc(NC(=O)CCn2c(=O)sc3ccccc32)n1
 : i, 0.5%, 3.6e-08, i, 10%
> CCc1ccc(-c2nc(CSCC(=O)N3CCN(c4ncccn4)CC3)c(C)o2)cc1
 : x, -2.0%, x, x, 23%
> CC(C(=O)NCCCN1CCOCC1)n1cccc1C(=O)c1ccccc1 (stereo not drawn)
 : i, 1.6%, 4.6e-09, i, 1%
> CCN(CC)c1ncnc2c1cnn2C
 : i, -0.5%, 1e-09, i, -4%
> CC(=O)c1cc(-c2ccccc2)[nH]c1N1CCOCC1
 : i, 0.7%, 5.1e-09, i, -5%
> CCCOc1ccc(/C(O)=C2/C(=O)C(=O)N(CCCOC)C2c2cccnc2)cc1 (stereo not drawn)
 : i, 3.0%, 1.7e-09, i, -6%
> NC(=O)c1c(NC(=O)C2CCCO2)sc2c1CCC2 (stereo not drawn)
 : i, 3.3%, 2.1e-08, i, u
> O=C(O)CC(Cc1ccccc1)c1ccc2c(c1)OCO2 (stereo not drawn)
 : i, -2.1%, 4.4e-09, i, 21%
> CCC1(C)Cc2c(c(=O)n(-c3ccccc3)c3ncnc(N)c23)CO1 (stereo not drawn)
 : i, -1.5%, 8.6e-09, i, -2%
> CCOc1ccc(NC(=O)c2nn(C)cc2Br)cc1
 : i, x, 1.3e-09, i, x
> Cc1cc(NC(=O)c2cc3n(n2)C(C(F)(F)F)CC(c2ccco2)N3)no1 (stereo not drawn)
 : x, -0.8%, x, x, -11%
> O=C(O)[C@H](CCc1ccccc1)N1C(=O)c2ccccc2C1=O
 : i, 2.4%[11.5 µM], 1e-09, i, 2%[11.4 µM]
> CC(=O)N1CCC(Nc2ccc(C)cc2)CC1
 : x, 0.6%, x, x, -8%
> COc1ccc2c(c1)CCc1c(C(=O)N3CCCCCC3)noc1-2
 : i, -1.8%, 4.6e-08, i, 18%
> CCOC(=O)C1CCN(C(=O)c2cn(-c3ccccc3)nc2-c2cccnc2)CC1
 : i, 1.8%, 1.8e-09, i, 22%
> Cc1cc(Cl)ccc1OCCCC(=O)NO
 : x, -0.1%, x, x, -4%
> COc1cc(/C=C\C(=O)N2CCCCC2=O)cc(OC)c1OC
 : i, x, 1.7e-08, i, 1%
> Oc1ccc(C(c2nnnn2C2CCCC2)N2CCc3ccccc3C2)cc1 (stereo not drawn)
 : i, 0.3%, 4.3e-08, i, u
> Cn1c(=O)[nH]c(=O)c2c1nc(NCCc1ccccc1)n2CC(O)COc1ccccc1 (stereo not drawn)
 : i, 0.3%, 2.6e-08, i, -20%
> COc1ccc(OC2C(O)COC2/C=C/C#Cc2ccccc2)cc1 (stereo not drawn)
 : x, 1.6%[11.5 µM], x, x, -1%[11.4 µM]
> COc1ccc2c(c1)[nH]c1c(=O)n(CC3CCCO3)cnc12 (stereo not drawn)
 : i, x, 3.3e-08, i, x
> O=C(CCc1nc(-c2cccs2)no1)Nc1cnc2ccccc2c1
 : i, -0.3%, 1.6e-09, i, 1%[11.4 µM]
> C[N+](C)(C)CCC(=O)c1cccc2ccccc12
 : i, -3.2%, 4.6e-08, i, u
> CCOc1ccc(C(=O)COC(=O)CC)cc1
 : x, 1.0%, x, x, 9%
> COC(=O)C(Cc1ccc(O)cc1)NC(=O)C(C)Oc1ccccc1 (stereo not drawn)
 : i, -1.0%, 1.7e-09, i, u
> NCCCCCCNS(=O)(=O)c1cccc2c(Cl)cccc12
 : i, 10%&-1.4%&-3.1%, 6e-09, i, u
> COc1ccc(C)cc1S(=O)(=O)N(CC(=O)O)c1ccc(C)cc1
 : i, -2.7%, 1e-09, i, 3%
> O=C(CC1Oc2ccccc2NC1=O)NCCCN1CCN(Cc2ccccc2)CC1 (stereo not drawn)
 : x, -2.2%, x, x, -11%
> CC1(C)CC(=O)C(C=NCCN2CCN(C(=O)C34CC5CC(CC(C5)C3)C4)CC2)=C(O)C1
 : i, x, 2.8e-08, i, x
> Cc1n[nH]c(C)c1S(=O)(=O)N1CCN(C(=O)c2ccco2)CC1
 : i, 0.9%, 1e-09, i, 1%
> c1ccc2c(c1)CCOC2CNCCCN1CCCCC1 (stereo not drawn)
 : i, x, 1.3e-08, i, x
> O=C(C1CCCN(S(=O)(=O)c2cnc[nH]2)C1)N1CC(=O)N(CCc2ccccc2)C(=O)C1 (stereo not drawn)
 : x, -0.7%, x, x, -21%
> CCCCNC(=O)CSc1cc(=O)n(C)c2ccccc12
 : i, -0.7%, 2.4e-09, i, -4%
> Cn1nnc2cc(C(=O)NC3CCCCC3)ccc21
 : i, -0.8%, 4.2e-08, i, 2%
> O=C(O)c1ccc2c(c1)C(=O)N(c1cc(C(=O)O)ccc1Br)C2=O
 : i, -0.8%, 1e-09, i, -4%[11.4 µM]
> NC(N)=N/N=C\c1ccc(C2CCNCC2)cc1
 : i, 2.7%[11.5 µM], 1e-09, i, 1%[11.4 µM]
> Cc1ccc(-n2ncc3c(N4CCN(c5ccccc5)CC4)ncnc32)c(C)c1
 : i, x, 1.9e-08, i, x
> CC(C)C(=O)Nc1cccc(C(=O)Nc2nccs2)c1
 : i, 0.1%, 1e-09, i, -3%
> CN1CCN(Cc2cc(=O)oc3ccc(Cl)cc23)CC1
 : i, -2.1%, 1.9e-08, i, 7%
> CN(CCOC(=O)c1ccc2c(c1)OCCO2)Cc1ccccc1
 : i, x, 3.9e-09, i, x
> COc1cc(C)nc(OCCNC(=O)COc2ccc(Cl)cc2Cl)n1
 : i, -1.3%, 2e-08, i, 0%[11.4 µM]

New compounds follow
Screens in order – A488 fluor, AID923, A647 fluor, Resorufin autofl, TSHR agonist
> O=C(Oc1ccccc1OC(=O)N1CCOCC1)N1CCOCC1
 : i, 1.7%, 2.5e-08, i, 0%
> C=CCN(c1ccc(C(=O)N2CCCC2)cc1)S(C)(=O)=O
 : i, 0.1%, 7.4e-08, i, u
> O=C(Nc1ccc2c(c1)OCCO2)c1ccc(NC(=O)C2CCCO2)cc1 (stereo not drawn)
 : i, 1.0%, 9.9e-09, i, -3%
> Cc1cn([C@H]2C=C[C@@H](CO)O2)c(=O)[nH]c1=O
 : i, 0.3%&0.3%, 3.3e-08, i, 1%&3%
> Cc1ccc(S(=O)(=O)Cc2ccc(C(=O)NCCCN3CCCC3=O)o2)cc1
 : i, 2.1%, 1e-09, i, -2%
> CCOC(=O)CSC1=C(C#N)C(c2ccc(Cl)cc2)C(C(=O)OC)C(=O)N1 (stereo not drawn)
 : i, -3.4%, 1.5e-09, i, 0%
> COc1ccccc1NC(=O)COc1ccc(CO)cc1Cl
 : i, 0.4%, 1e-09, i, 10%
> CC(CN1CCN(C)CC1)OC(=O)c1ccc(Cl)cc1Cl (stereo not drawn)
 : i, x, 1e-09, i, x
> CCn1cc(C(=O)NCc2ccccn2)c(=O)c2cc(F)c(N3CCN(C)CC3)cc21
 : i, x, 2.3e-09, i, x
> CNc1sc(C(=O)c2cccs2)c(N)c1-c1nc2ccccc2s1
 : i, -0.5%, 4.1e-09, i, u
> O=C(c1cccs1)N1CCn2c1nc1ccccc12
 : i, 0.3%, 5e-09, i, -9%
> Cc1ccc(-n2c(C)nc3oc4ccccc4c(=O)c3c2=O)cc1
 : i, -0.2%, 5.2e-09, i, -5%
> CO[C@@H]1COC(=O)C/C=C\[C@H](C)COC(=O)[C@H](Cc2ccccc2)NC(=O)C/C=C\[C@H]1C
 : x, 4.5%[11.5 µM], x, x, 13%[11.4 µM]
> CCOC(=O)N1CCN(C(=O)c2ccc3nc(C)sc3c2)CC1
 : i, 0.9%, 2.1e-08, i, -11%
> COc1ccc(C2C(C(=O)N3CCOCC3)CCC(=O)N2c2ccc(OC)cc2)cc1 (stereo not drawn)
 : i, 0.5%, 2.1e-09, i, -5%
> CCSc1nc2c([nH]c3ccccc32)c(=O)n1C
 : x, 1.5%, x, x, 4%
> Cc1cc(-c2nn3c(-c4ccccc4)nnc3s2)c2ccccc2n1
 : i, -0.9%, 1e-09, i, 9%
> NC(N)=NC(=O)c1nc(Cl)c(N2CCCCCC2)nc1N
 : i, 2.1%&-1.7%, 1e-09, i, u
> COc1ccc(CN2C(=O)[C@@H]3C(c4ccc(F)cc4)=NO[C@@H]3C2=O)cc1
 : i, -1.4%, 1.6e-09, i, 17%
> COc1cc(OC)c(-c2nc3cnccc3n2C)cc1OC
 : i, 0.9%, 2.9e-09, i, -3%

Ordered by heavy-atom count (ascending): four of the compounds above
Screens in order – A488 fluor, AID923, A647 fluor, Resorufin autofl, TSHR agonist
> Cc1cn([C@H]2C=C[C@@H](CO)O2)c(=O)[nH]c1=O
 : i, 0.3%&0.3%, 3.3e-08, i, 1%&3%
> CCSc1nc2c([nH]c3ccccc32)c(=O)n1C
 : x, 1.5%, x, x, 4%
> O=C(c1cccs1)N1CCn2c1nc1ccccc12
 : i, 0.3%, 5e-09, i, -9%
> CCOC(=O)CSC1=C(C#N)C(c2ccc(Cl)cc2)C(C(=O)OC)C(=O)N1 (stereo not drawn)
 : i, -3.4%, 1.5e-09, i, 0%

Source: PubChem
